RanGTP-Impb inh – inhibitors of RanGTP-importin-beta interaction, primary screen, biochemical, FRET, CFP-Ran, YFP-importin-beta, homogeneous | Ran GTPase (GTP-bound) - importin-beta complex | cell-free CFP-Ran/YFP-importin-beta FRET ratio | inhibition, % (test concentration not listed) | actives 1.1% (n = 300,000) | AID 2216, 2009;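 active = most replicates above 15%; inconclusive = exactly half above 15%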;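 also: 0% = DMSO wells and 100% = Ran loaded with GDP instead of GTP; wells of about 40 µL received 100 nL stock; the first replicate is given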
Vif TR-FRET – inhibitors of Vif binding to APOBEC3G peptide, primary screen, biochemical, TR-FRET, GST-Vif 1-94, biotin-A3G peptide, dose response retest (AID 1117319); Virion infectivity factor (Human immunodeficiency virus type 1 group M subtype B (isolate …; TR-FRET GST-Vif / biotin-A3G peptide binding; higher % means a stronger effect; test concentration not given here; strong numbers were not always called active; inhibition, %; hits with a dose series show IC50 in µM; actives 0.57% (n = 260,000);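 active = above the screen mean plus three standard deviations and confirmed in dose response; inconclusive = results disagree or hit not tested in dose response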;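 also: Vif residues 1-94 fused to GST binding biotinylated APOBEC3G peptide 110-148; 0% = full assay without inhibitor and 100% = GST in place of GST-Vif; retest series ran down from 100 µM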
Calb FLC – C. albicans growth inhibition with fluconazole, primary screen, CaCi-2 strain, Alamar Blue fluorescence; growth inhibition, % (concentration not given with the values); C. albicans CaCi-2 (fluconazole-resistant clinical isolate) + fluconazole, 48 h; actives 0.57% (n = 300,000); AID 1979, 2009;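 active = most replicates above 75%; inconclusive = exactly half above 75%; inactive = most below 75%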;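 also: all wells also contain fluconazole at 8 µg/ml as a sub-toxic cotreatment; 0% = median of DMSO wells and 100% = median of geldanamycin control wells; wells of about 8 µL received 7.5 nL stock; the first replicate is given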
ALR inh – inhibitors of human ALR sulfhydryl oxidase, primary screen, biochemical, H2O2 detection, HRP-luminol luminescence, single point. purified ALR, DTT oxidation. actives 3.8% (n = 290,000). inhibition, % (test concentration not listed). FAD-linked sulfhydryl oxidase ALR (Homo sapiens), P55789. AID 485317, 2010;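 active = mean and each replicate at 75% or more; inconclusive = only one of the two met; inactive = neither met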;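 also: stock transfer was 7.5 nL into about 7.5 µL; 0% = neutral wells and 100% = wells with inactivated enzyme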
Target sequence (P55789 whole entry, looked up): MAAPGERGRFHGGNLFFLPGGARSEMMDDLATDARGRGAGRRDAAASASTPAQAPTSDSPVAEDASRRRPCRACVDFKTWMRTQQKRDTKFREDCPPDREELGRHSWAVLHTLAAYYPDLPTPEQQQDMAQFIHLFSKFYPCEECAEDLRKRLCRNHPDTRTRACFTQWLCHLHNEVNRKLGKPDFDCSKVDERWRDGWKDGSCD
Beta2AR agonist – beta2AR agonists driving receptor internalization, primary screen, cell-based, FAP fluorogen, flow cytometry | Beta-2 adrenergic receptor (Homo sapiens), P07550 | Am2.2-beta2AR cells; reference of the scale not given here | response, % (concentration not given with the values) | actives 0.43% (n = 340,000) | AID 504454, 2011;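 active = response above a set limit, near 3 SD of response in nonfluorescent compounds, cut at about 42% in these data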;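 also: stock transfer was 100 nL into about 11 µL; a reference agonist was the positive control; negative values mostly stem from fluorescent compounds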
Target sequence (P07550 whole entry, looked up): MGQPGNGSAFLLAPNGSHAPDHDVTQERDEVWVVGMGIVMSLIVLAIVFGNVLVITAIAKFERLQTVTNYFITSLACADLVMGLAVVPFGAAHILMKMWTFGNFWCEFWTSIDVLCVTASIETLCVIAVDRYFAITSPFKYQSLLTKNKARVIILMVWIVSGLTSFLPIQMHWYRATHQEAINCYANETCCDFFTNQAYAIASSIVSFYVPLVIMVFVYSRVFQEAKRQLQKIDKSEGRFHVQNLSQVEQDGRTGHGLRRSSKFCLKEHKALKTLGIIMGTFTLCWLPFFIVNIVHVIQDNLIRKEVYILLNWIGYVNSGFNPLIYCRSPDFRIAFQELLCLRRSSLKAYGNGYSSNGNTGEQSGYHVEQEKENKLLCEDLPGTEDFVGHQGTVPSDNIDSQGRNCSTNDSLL
LANA-H2B inh – blockers of LANA interaction with H2A/H2B – biochemical, FP readout, HTS, primary screen; inhibition, % (concentration not given with the values); cell-free LANA-H2A/H2B peptide, fluorescence polarization; Protein LANA1 (Human herpesvirus 8 type P (isolate GK18)), Q9QR71; actives 0.6% (n = 320,000); in the data active = inhibition mostly above about 10%, no sharp cut-off; inactive = mostly below about 6.7%;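 also: stock transfer was 7.5 nL into about 10 µL; 0% = median of vehicle wells and 100% = median of positive control wells; one replicate is shown; the record names a cut of 25% in any replicate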
HNF4A DNA FP – change in binding of human HNF4A to DNA, primary screen, biochemical, fluorescence polarization, FITC-DNA; Hepatocyte nuclear factor 4-alpha (Homo sapiens), P41235; 1 h; activity change, % at 10 µM; actives 0.3% (n = 360,000); AID 1224865, 2016; in the data active = activity change above about 30%, passing the limit was not always enough;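 also: controls were the assay level and a saturating level of protein; the project sought stronger binding though the title names inhibitors; some compounds called inactive have numbers as strong as hits; positive values seem to mean higher polarization but the record does not say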
* marks the source's active call; other numbers are inactive results; ? = inconclusive; . = no result given.

structure	RanGTP-Impb inh	Vif TR-FRET	Calb FLC	ALR inh	Beta2AR agonist	LANA-H2B inh	HNF4A DNA FP
O=C(c1ccco1)N1CCN(Cc2cccc(C(F)(F)F)c2)CC1	-2.6	.	-3	3	-2	-4.5	1.9
CCOc1ncccc1C(=O)OCC(=O)N(CC)c1ccccc1	2.0	-2%	-4	-3	0	-2.7	0.1
COc1ccccc1C(=O)N1C(CC(=O)Nc2cc(Cl)ccc2C)C(=O)NC2CCCCC21 (stereo not given)	-5.0	0%	5	-4	0	-2.3	1.4
Cc1nnc(SCC(=O)Nc2cccc([N+](=O)[O-])c2)n1CC1CCCO1 (stereo not given)	-2.5	-1%	7	-9	-1	-4.0	1.7
CCCNC(=O)C1CCN(S(=O)(=O)c2cccs2)CC1	?	-9%	-1	.	4	-4.5	2.5
C#Cc1ccc([C@H]2C=C(C(=O)N3CCOCC3)O[C@@H](OCc3ccc(CO)cc3)C2)cc1	-3.1	76%	-8	.	-1	-2.4	6.0
CCOC(=O)c1[nH]c(COC(=O)C2CC(=O)N(Cc3ccccc3)C2)c(C(=O)OCC)c1C (stereo not given)	0.7	1%	5	26	1	-0.1	-3.9
CCc1ccccc1NC(=O)CN(C)C(=O)Cn1cnc2ccc(Cl)cc2c1=O	.	.	.	20	6	6.0	2.4
CN(C)C(=O)CCCCCCCCC(=O)N(C)C	?	-3%	6	-7	-8	-14	5.6
COc1cc(CC(NC(C)=O)C(=O)NC2CCN(c3nc(OC)nc(OC)n3)CC2)cc(OC)c1 (stereo not given)	-3.1	2%	-2	-10	-1	-13	3.2
COC(=O)c1c(NC(=O)CSc2nnc(-c3ccco3)n2C)sc(C)c1C	-0.8	-16%	-10	.	-12	6.0	0.1
CC(C)CNC(=O)c1cccc(NC(=O)c2ccccc2-c2ccccc2C(=O)O)c1	-0.5	.	-1	-3	7	4.3	2.9
O=C(c1ccco1)N1CCN(S(=O)(=O)c2cccc3nsnc23)CC1	-1.9	-3%	-7	-1	1	1.0	-3.0
CCOCCCn1c(SCC(=O)Nc2ccccc2)nc2ccccc2c1=O	-8.0	.	-4	3	-2	0.0	0.6
Cc1cc2c(sc3ccccc32)c(C)n1	?	-10%	3	2	-1	-2.2	0.2
O=c1c(-c2ccc(Cl)cc2)coc2c(CN3CCOCC3)c(O)ccc12	1.4	26%	5	30	-16	4.4	0.0
CCc1ccccc1NC(=O)COc1ccc(C(=S)N2CCCC2)cc1	-2.3	.	-7	-6	-7	-2.7	6.4
O=C(C[n+]1ccc(C(=O)c2ccccc2)cc1)Nc1ccc(C(F)(F)F)cc1	-0.1	-1%	-5	-8	-14	0.4	2.9
COc1ccc2occ(C(C)=O)c2c1	0.3	-2%	-6	1	-5	3.9	-0.4
CCOC(=O)N1CCN(C(=O)c2ccc3c(=O)n(CC4CCCO4)c(=S)[nH]c3c2)CC1 (stereo not given)	0.0	-4%	-2	5	-1	1.5	-2.0
O=C1C2C3c4ccccc4C(c4ccccc43)C2C(=O)N1c1nc(-c2ccccc2)cs1 (stereo not given)	-3.2	-3%	7	2	0	5.8	-2.0
CCOC(=O)CCNC(=O)N1CCCC(C(=O)c2cccc(OC(C)C)c2)C1 (stereo not given)	-0.9	.	5	-6	-3	-4.9	2.2
c1ccc(CCCN2CCN(c3ccccn3)CC2)cc1	-2.3	.	4	42	2	-0.5	-4.6
CC(=O)Nc1ccc(S(=O)(=O)NCc2ccc(C(=O)NCCN3CCCCCC3)cc2)cc1	1.7	-4%	6	-1	-11	0.9	-1.6
CC(C)(C)OC(=O)C(C)(C)O/N=C(\C(=O)O)c1csc(N)n1	-1.1	2%	2	10	3	-5.5	-0.4
Cc1ccc(C)c(-c2csc(NC(=O)c3c(C)noc3C)n2)c1	.	-17%	.	-1	1	1.8	5.8
Cc1cccc(N2C(=O)CC(N3CCN(c4ccccc4)CC3)C2=O)c1 (stereo not given)	1.5	7%	-1	54	4	-3.9	0.1
FC(F)Oc1ccc(NC(=S)NCc2ccco2)cc1Cl	3.1	3%	-3	-6	-9	-1.5	8.2
Cc1c(NC(=O)COc2c(F)c(F)c(F)c(F)c2F)c(=O)n(-c2ccccc2)n1C	0.4	.	-12	0	4	5.1	-1.8
COc1cc(OC)c(NC(=O)CCCNC(=O)Cn2cnc3sc(C)c(C)c3c2=O)cc1Cl	-0.1	.	1	34	-9	-1.2	4.7
CC1(C)C2CCC(C2)C1(C)N=C1OC(CCl)CS1 (stereo not given)	?	.	2	-2	4	0.2	1.5
O=c1[nH]c(C2CCCN(S(=O)(=O)c3ccccc3)C2)nc2c1nnn2Cc1ccccc1F (stereo not given)	-4.3	26%	-7	-23	-9	2.4	-4.0
Cc1ccc(OCc2ccc(C(=O)Nc3ccc(C(N)=O)cc3)o2)c([N+](=O)[O-])c1	-4.6	9%	8	-33	28	6.5	10
Cc1cccc(N2CCN(C(=O)c3ccc4c(c3)NC(=O)C(CSCc3cccc(F)c3)N4)CC2)c1C (stereo not given)	2.2	-12%	7	-60	.	0.1	.
Cc1ccc(CNC(=O)c2ccc(C)c(S(=O)(=O)N3CCCCC3)c2)cc1	.	2%	.	-11	2	1.9	0.3
CCN(CC(=O)NC(C)(C)C)Cc1cc(=O)n2c(-c3ccccc3)csc2n1	-0.6	16%	2	-16	1	2.5	2.0
CCNc1oc(COc2ccccc2F)nc1C#N	-3.3	18%	1	3	2	6.0	-1.6
COc1ccc(NC(=O)C(NC(=O)c2ccc(=O)[nH]c2)c2ccc(C)cc2)cc1 (stereo not given)	-2.4	7%	-3	11	-3	2.9	-1.9
Cc1cccc(-c2noc(CNC(=O)c3ccc4c(c3)OCO4)n2)c1	-1.8	.	-19	0	-15	0.5	14
COc1ccc(-c2nc3c(-c4ccccc4)cnn3cc2C)cc1F	-3.5	-2%	-4	28	3	-15	6.1
Cc1ccnc(NC(=O)c2cc(-c3ccc(Cl)s3)nc3ccccc23)c1	7.6	-88%	-3	1	-1	4.1	-0.6
O=C(c1ccc2ccccc2n1)N1CCN(S(=O)(=O)c2ccc(Cl)cc2)CC1	.	-9%	.	-3	-4	4.7	-3.0
c1ccc(CSc2nncn2-c2ccccn2)cc1	1.2	-4%	?	-2	-19	-1.9	2.1
O=C(CSc1nc(C2CC2)nc2c1cnn2-c1ccccc1)Nc1c[nH]c(=O)[nH]c1=O	-8.2	-6%	10	2	-4	1.4	-0.1
O=C(O)C(c1ccccc1)N1C(=O)/C(=C\c2ccc(-c3cccc(Cl)c3)o2)SC1=S (stereo not given)	-32	15%	38	98*	-35	-41	51
COc1ccccc1C(=O)NC(=O)COC(=O)c1cccc(C)c1O	-2.4	-5%	12	4	-10	-3.5	2.5
NC(=O)c1ccc(NC(=O)CCCNC(=O)c2ccc(Cl)cc2)cc1	2.0	-4%	3	.	3	-12	-1.2
COc1ccc2cc(CN(C(=O)Nc3ccccc3OC)C3CCCC3)c(=O)[nH]c2c1	3.8	-1%	-8	-8	1	3.2	-0.4
Cc1ccc(S(=O)(=O)N2CC3(C)CN(S(=O)(=O)c4ccc(C)cc4)CC(C)(C2)C3O)cc1 (stereo not given)	-1.5	?	?	-7	-10	-1.5	-0.5
O=S(=O)(Nc1ccccc1F)c1cccc(NC(=S)NCCN2CCOCC2)c1	.	.	.	37	0	-6.6	-2.7

Continuation:
structure	RanGTP-Impb inh	Vif TR-FRET	Calb FLC	ALR inh	Beta2AR agonist	LANA-H2B inh	HNF4A DNA FP
O=C(CSc1nc2ccccc2c(=O)[nH]1)c1ccccc1	1.8	-26%	43	-12	-5	-1.7	-2.9
CCc1nnc(NS(=O)(=O)c2ccc(N/C=C\C(=O)c3cccc(OC)c3)cc2)s1	-1.9	1%	-13	18	2	1.8	-3.0
Cc1ccccc1-n1c(SCC(=O)c2cc(C)n(C)c2C)nnc1-c1ccncc1	8.3	3%	-3	-13	1	-4.3	-1.8
COC(=O)C1=NNC2(c3ccc(Cl)cc3)C(=O)N(c3ccccc3)C(=O)C12 (stereo not given)	-5.2	1%	-6	.	18	-3.1	-0.5
Cc1ccc(S(=O)(=O)NCCC(=O)OC(C)C(=O)NC2CC2)cc1 (stereo not given)	.	3%	.	.	3	.	-2.0
O=C(/C=C/c1cc2ccccc2o1)c1ccccc1O	0.6	1%	-2	.	12	2.9	0.3
CCSCc1nnc(SCC(=O)Nc2cc(F)ccc2C)n1C	-0.6	-3%	7	-4	1	2.3	-0.9
CC(C)(C)c1ccc(S(=O)(=O)Nc2cccc(C3OCCCO3)c2)cc1	-1.2	-10%	9	-28	-2	-0.5	-0.9
CN(C)C(=O)CS(=O)(=O)c1ccc(Cl)cc1	8.2	.	5	-1	-2	-2.3	-1.7
CCOc1ccc(S(=O)(=O)N(C)CC(=O)NCc2ccccn2)cc1Cl	-0.8	.	5	-24	-6	6.5	-4.3
CC(=O)N1N=C(c2cccnc2)OC1c1ccc(C(C)C)cc1 (stereo not given)	-3.6	.	-3	.	0	3.9	-0.4

Part of the list above in order of heavy-atom count, ascending.
structure	RanGTP-Impb inh	Vif TR-FRET	Calb FLC	ALR inh	Beta2AR agonist	LANA-H2B inh	HNF4A DNA FP
O=C(CSc1nc2ccccc2c(=O)[nH]1)c1ccccc1	1.8	-26%	43	-12	-5	-1.7	-2.9
Cc1ccc(OCc2ccc(C(=O)Nc3ccc(C(N)=O)cc3)o2)c([N+](=O)[O-])c1	-4.6	9%	8	-33	28	6.5	10
O=C(O)C(c1ccccc1)N1C(=O)/C(=C\c2ccc(-c3cccc(Cl)c3)o2)SC1=S (stereo not given)	-32	15%	38	98*	-35	-41	51
CC(=O)Nc1ccc(S(=O)(=O)NCc2ccc(C(=O)NCCN3CCCCCC3)cc2)cc1	1.7	-4%	6	-1	-11	0.9	-1.6

Screening data: PubChem, several laboratories
